Screening data from PubChem BioAssay.
VACV Venus inh: inhibitors of vaccinia virus (Venus reporter); AID 720580; Vaccinia virus Venus reporter expression, fluorescence; Potency, µM (series often up to 36.5 µM), for the others: at the highest dose activity change, negative = inhibition, most hits filed as inhibitors; 330,000 compounds, 0.46% hits; active means well fitted inhibition curve with a large enough effect; inconclusive means small, poorly fitted or top-dose-only effect; inactive means no such curve, though single readings can be large or run the other way; tested in A549 cells; also: nearly all actives have a fitted effect of over 30% in size; inactives centre near -10
Vaccinia mCherry: inhibitors of vaccinia virus infection (mCherry reporter signal) | Vaccinia virus mCherry reporter infection, fluorescence; about a quarter of the inactives have no number | Potency, µM (doses to about 36.5 µM), inactives show at the highest dose activity change, negative = inhibition, hits mostly inhibitors | 310,000 compounds, 0.63% hits; active = well fitted inhibition curve with a large enough effect; inconclusive = small, poorly fitted or top-dose-only effect; inactive = no such curve, though single readings can be large or run the other way; tested in A549 cells; also: nearly all actives have a fitted effect of over 35% in size; inactives centre near -10
Numbers without * were called inactive; i = inactive; ? = inconclusive; . = not tested or not shown; & = joins results of further samples; [ ] = dose if it differs, or a comment. % is scaled to controls: 0 for no effect and ±100 for the full control effect; potency is read from the fitted curve at half-maximal effect. Rows were taken by chance; 0.87% or so of the library scored in one or more.

SMILES	VACV Venus inh	Vaccinia mCherry
Cc1ccccc1N1CCN(S(=O)(=O)c2nnc(NC(=O)CC(C)C)s2)CC1	-16%	-4%
CCN(CC(=O)NCc1cccs1)C(=O)CCC(=O)c1ccc(F)cc1	0%	-4%
CC(C)C(=O)Nc1nnc(SCC(=O)NCC2CCCO2)s1 (stereo not given)	-4%	i
O=C(NCCc1ccc(Cl)cc1)C1CC(=O)N(C2CCCC2)C1 (stereo not given)	10%[7.34 µM]	6%[7.34 µM]
O=C(O)/C=C/c1ccc(S(=O)(=O)NCc2cccnc2)cc1	-1%	-9%
CC1CCN(Cc2cc(=O)oc3ccc4ccccc4c23)CC1	1%	i
COCC(=O)Nc1ccc(S(=O)(=O)Nc2nccs2)cc1	-13%	-25%
COC(=O)c1ccc(CNC(=O)COC(=O)C23CC4CC(CC(C4)C2)C3)cc1	-2%	-15%
CN(Cc1ccccc1)C(=O)COC(=O)C1CCN(S(=O)(=O)c2cccs2)CC1	-5%	i
CCc1cc2ccccc2nc1SCC(=O)N1CCN(C(=O)c2ccco2)CC1	0%	i
CC(C)CCN(CCC(C)C)C(CO)(CO)CO	-6%	-2%
CCOC(=O)c1cc2c(=O)n3cccc(C)c3nc2n(CCOC)c1=NC(C)=O	-22%	-8%
C[C@@H](NC(=O)c1nc[nH]c1C(=O)N[C@@H](Cc1ccccc1)C(=O)OCc1ccccc1)c1ccccc1	-13%	-2%
Cc1ccccc1-c1ccccc1N	-12%	i
Cc1ccc(CN2CCN(/N=C/c3ccc(C)s3)CC2)cc1	-6%	i
COC(=O)c1ccc(NC(=O)C2CCCN2S(=O)(=O)c2ccc(OC)cc2)cc1 (stereo not given)	10%	14%
Cc1c(C)n(Cc2ccc(F)cc2)c2ccc(C(=O)N3CCN(c4ccc(Cl)cc4)CC3)cc12	-10%	-17%
COc1cc(C2c3c(oc4ccccc4c3=O)C(=O)N2c2ccc(C)cn2)ccc1O (stereo not given)	-4%	-12%
O=C(NCc1n[nH]c(=S)n1-c1cccc(Cl)c1)c1ccc(S(=O)(=O)N2CCCCC2)cc1	-12%	-4%
COc1cc(CNCCc2ccccc2)cc(Cl)c1OCc1ccccc1	?	10µM*
CCCCn1c(N)c(N(CCOC)C(=O)c2cc(-c3ccco3)nc3ccccc23)c(=O)[nH]c1=O	-9%	-15%
Cc1cccc(C)c1Nc1c(-c2ccsc2)nc2ccccn12	-25%	-18%
O=C(c1ccc2c(c1)N(Cc1ccccc1F)C(=O)c1ccccc1S2(=O)=O)N1CCCCC1	-10%	7%
COc1ccc(-c2cnnc(N/N=C/c3ccc(O)cc3)n2)cc1	-16%	-26%
Cc1c(C(=O)N2CCCCC2)nn(-c2ccc(Cl)cc2)c(=O)c1C#N	-12%	-1%
Other records follow:
SMILES	VACV Venus inh	Vaccinia mCherry
CCN1CCN(CC(O)COc2ccc(C(C)=O)cc2)CC1 (stereo not given)	-1%	37%[activator]
Cc1cc2sc3nc(=O)n(-c4ccccc4)c(=O)n3c2cc1C	-9%	-16%
CC(=O)Nc1ccc(S(=O)(=O)NNC(=O)c2ccc(C)cc2)cc1	-6%	-10%
CN(C)CCCN(C(=O)c1ccc(S(=O)(=O)N2CCc3ccccc32)cc1)c1nc2c(Cl)cccc2s1	?	-14%
CNC(=O)C(=O)Nc1c(C)cc(C)cc1C	-7%	-11%
COc1ccc(C(=O)NNC(=O)C(=O)NC2CCCCC2)cc1	7%	-13%
CC(C)[C@H](NC(=O)N1CCn2c1nc1ccccc12)C(=O)NCCc1ccccc1	?	-11%
CCOc1ccc(CN2CCc3nc(Nc4ccc5c(c4)OCCO5)ncc3C2)cc1	-14%	-14%
Cc1ccc2c(=O)cc(C(=O)Nc3c(C)n(C)n(-c4ccccc4)c3=O)oc2c1C	2%	15%
Cc1nn(Cc2ccccc2Cl)c(C)c1NC(=O)Cn1nc([N+](=O)[O-])c(Cl)c1C	0%	.
CCc1cc2cc(C)c(C)cc2nc1SCC(=O)NNC(=O)c1ccco1	-29%	?
CCCCN(C(=O)c1ccc2c(c1)OCCO2)c1c(N)n(CCCC)c(=O)[nH]c1=O	-1%	-7%
O=C1C=C(c2ccc3[nH]ccc3c2)C[C@@H](c2ccc(F)cc2)C1	-22%	-10%
CC(C)C(NC(=O)c1ccccc1F)C(=O)NCCc1ccccn1 (stereo not given)	-11%	-2%
CCOC(=O)c1c(C)[nH]c(CCC(=O)Nc2ccc(C)c(F)c2)c1C	-9%	-12%
CCOC(=O)c1ccccc1OC(=O)CS(=O)c1ccccc1[N+](=O)[O-] (stereo not given)	-7%	-3%
C=CCC[C@H](Cc1ccc(F)cc1)C(=O)OC[C@H](C)NC(=O)[C@@H](CC=C)CC(=O)N[C@H](CO)Cc1ccccc1	-19%	i
Cn1c(=O)c2c(ncn2CC(=O)Nc2cccc(S(=O)(=O)Nc3ccccc3F)c2)n(C)c1=O	-5%	i
Nc1ccc(C=C2C=Cc3ccccc32)cc1	-29%	-17%
CC1=C(C(=O)N(C)C)CC(CC(=O)NCCc2ccccn2)C(=O)N1Cc1ccccc1 (stereo not given)	-7%	-14%
CN(Cc1cnc2ccccn12)C1CCN(c2cccc(NC(=O)c3cccnc3)c2)CC1	-7%	-17%
COc1ccc(NC(=O)Nc2nc3ccccc3s2)cc1	-18%	?
CSc1ccc(CCNC(=O)c2ccc(CS(=O)Cc3ccc(Cl)cc3)o2)cc1 (stereo not given)	-6%	-7%
O=C(O)c1ccc(NC(=O)c2cn(-c3ccccc3)nc2-c2ccccc2)cc1	0%	-18%
Fc1ccc(Br)cc1C1C=C(c2ccc(Br)s2)Nc2ncnn21 (stereo not given)	-13%	?
Following part
SMILES	VACV Venus inh	Vaccinia mCherry
O=C(COC(=O)C1CC1)Nc1ccc(S(=O)(=O)N2CCOCC2)cc1	-13%	i
COc1ccc(/C=N/NC(=O)c2c(C)nnn2-c2nonc2N)cc1OC	8%	1%
CN(C)S(=O)(=O)c1cccc(NC(=O)COc2ccccc2C(=O)NCc2ccccc2)c1	-25%	-16%
CCc1n[nH]c(=S)n1/N=C/c1ccc(NC(C)=O)cc1	-14%	-4%
Cc1ccccc1OCC(=O)N1CCN(CCc2ccccn2)CC1	18%	7%
Nc1scc(-c2ccncc2)c1Cl	-20%	?
CC(C)(C)OC(=O)N1CCC(C(=O)N2CCCCCC2)CC1	-10%	.
Cn1ncc(Br)c1NC(=O)Nc1ccc(OC(F)(F)F)cc1	-7%	i
O=C(Nc1ccc(N2CCCCC2)c(C(=O)O)c1)c1ccco1	5%	-10%
CCc1nc2ccc(C(=O)NCc3ccc4c(c3)OCO4)cn2c1N(C)Cc1cccs1	-24%	-26%
O=C(c1cc(=O)[nH]c2ccccc12)N1CCN(Cc2ccc3c(c2)OCO3)CC1	-10%	i
COc1ccc(-n2cnc3cc(NS(=O)(=O)c4ccccc4)ccc32)cc1	?	-23%
COc1ccc(C2CC(c3cccc(C)c3)n3ncnc3N2)cc1 (stereo not given)	-4%	-10%
CC1(C(=O)NS(=O)(=O)c2ccc(C#N)cc2)CCN1C(=O)Cc1ccsc1 (stereo not given)	-13%	i
O=C(NC(=S)NC1CCCC1)c1ccccc1Br	-12%	i
Cc1cc(Nc2cc(F)ccc2C)nc(-n2nc(C)cc2C)n1	-16%[7.34 µM]	-13%[7.34 µM]
Cc1cccc(NC(=O)c2ccc(S(=O)(=O)N3CC(C)OC(C)C3)cc2)n1 (stereo not given)	-15%	-22%
Brc1c(CSc2nc3ccccc3o2)nc2ncccn12	-24%	-3%
O=[N+]([O-])c1ccc(/C=N/n2c(-c3cccnc3)n[nH]c2=S)cc1	-5%	-12%
O=C(CN1CCOCC1)Nc1ccccc1Cl	-3%	-13%
CCCN(CCC)c1nc(Cl)nc(NCCN2CCOCC2)n1	-14%	i
C=CCn1c(COc2ccc(F)cc2)nnc1SCC(=O)NC1CCCC1	-2%	-12%
CN(C)C(=O)c1c2c(nc3ccccc13)-c1ccccc1CC2	-13%	i
COc1ccc(C(=O)C2CCCN(Cc3cnc(N4CCCC4)s3)C2)cc1OC (stereo not given)	-17%	-14%
O=C(Cn1cc(SCc2c(F)cccc2Cl)c2ccccc21)N1CCCC1	-21%	-17%
Following part.
SMILES	VACV Venus inh	Vaccinia mCherry
CC(=O)C1=C(O)C(=O)N(c2ccc(S(N)(=O)=O)cc2)C1c1ccccc1F (stereo not given)	-1%	.
O=C(COC(=O)c1ccccc1Nc1ccccc1F)c1ccccc1	-6%[7.34 µM]	-5%[7.34 µM]
CCOc1ccc(S(=O)(=O)N2CCN(S(=O)(=O)c3ccc(C)c(C)c3)CC2)cc1	-4%	i
CCCCN1C(C(=O)c2ccccc2)=C(OC(C)=O)c2ccccc2S1(=O)=O	?	-20%
CCOc1ccc(NC(=O)COc2ccc(C(=O)NC3CCCc4ccccc43)cc2OC)cc1 (stereo not given)	-3%	-23%
Cc1nc2ccccn2c(=O)c1NC(=O)c1ccco1	-15%	i
CCCCOC(=O)c1ccc(NC(=O)/C=C/c2cccs2)cc1	-1%	i
COC(=O)[C@@]1(Sc2ccc(C)cc2)CC(=O)N(C(=O)c2ccccc2)[C@@H]1c1ccccc1	1%	41%[activator]
CCc1ccc(NS(=O)(=O)c2ccc(-c3cc(C)no3)cc2)cc1	-15%	-12%
Cc1cc(Cl)ccc1NC(=O)Cc1ccc(NC(=O)N2CCCCc3ccccc32)cc1	-6%	-6%
Cc1cc(N2CCN(C)CC2)nc2ccc(NC(=O)CCC(=O)N3CCN(c4ccc([N+](=O)[O-])cc4)CC3)cc12	-29%	?
CC1(C)Cc2cccc(OCC(=O)N3CCN(c4ccc(F)cc4)CC3)c2O1	-8%	i
Cc1cc(C(=O)NN=C(CCC(=O)O)c2cccs2)c(C)o1	-6%	-15%
O=C(C[n+]1ccccc1)Nc1ccc(Oc2ccccc2)cc1	-20%	-23%
CON(C)C(=O)CCN(Cc1ccccc1)C(=O)OC(C)(C)C	-10%	i
Cc1c(C(=O)Nc2ccncc2)oc2c1C(=O)CC(C)(C)C2	-22%	i
COc1ccc(N2CCN(CC(=O)Nc3ccccc3C(=O)NC(C)c3ccccc3)CC2)cc1 (stereo not given)	-7%	i
Cc1cccc(NS(=O)(=O)c2cccc(C(=O)NCC(c3ccco3)N3CCCCC3)c2)c1 (stereo not given)	-24%	-12%
C/C(CCc1ccc2c(c1)OCO2)=N\NC(=O)c1ccccc1	-6%	i
COc1cccc(CNC(=O)Cc2ccc(S(=O)(=O)N3CCOCC3)s2)c1	-11%	-13%
COc1ccc(NS(=O)(=O)c2ccc3[nH]c4c(c3c2)CCCC4)c(OC)c1	-15%	-13%
Cc1ccccc1Cn1cnc2c(oc3ccccc32)c1=O	-20%&-10%	-14%&-18%
Clc1cccc(-c2nc3ccc(Cl)cn3c2Cc2ccsc2)c1	-2%	i
Cc1ccc(C(=O)OC/C(O)=C(\C#N)c2nc3ccccc3[nH]2)cc1S(=O)(=O)N1CCOCC1	-23%	-4%
Clc1ccccc1CSC1=NCCCN1	-1%	4%
The list goes on:
SMILES	VACV Venus inh	Vaccinia mCherry
CCC1CCCCN1C(=S)NC(=O)c1ccc(F)c(S(=O)(=O)N2CCOCC2)c1 (stereo not given)	-11%	i
C[C@@](N)(C(=O)O)[C@@H]1C[C@@H]1C(=O)O	-3%	i
Cc1ccccc1C(=O)NC(CC(C)C)C(=O)OCc1cc(=O)n2cc(Br)ccc2n1 (stereo not given)	-13%	i
CCCCOc1ccc(C(=O)Nc2ccc3c(c2)N(C(C)=O)CCC3)cc1	-15%	i
COc1cccc(-n2c(=O)c3c(C)c(C)sc3n(CC(=O)NCc3ccccc3)c2=O)c1	-11%	-7%
Cc1ccc(N2CC(c3nc4ccccc4n3CCC3CCCCC3)CC2=O)cc1 (stereo not given)	-16%	-17%
CCCC1OC(c2cc3c(cc2Cl)OCO3)OCC1CC (stereo not given)	7%	?
CCOC(=O)/C(C#N)=C/c1c(N2CCN(Cc3ccc4c(c3)OCO4)CC2)nc2c(C)cccn2c1=O	-1%	-14%
Cc1nn(-c2ccccn2)c(N)c1N=O	-7%	?
CN1C(=O)C(C)(C)c2cc(S(=O)(=O)NCc3ccc(C(=O)Nc4ccc(Cl)cc4)cc3)ccc21	-24%	-1%
COc1ccc(NC(=O)CSc2nnc3ccc(-c4cccnc4)nn23)c(OC)c1	-13%	-19%
COc1ncc(-c2ccc3c(c2)S(=O)(=O)c2cccc(C(=O)O)c2C3=O)cn1	-3%	i

Entries from the list above that have two or more sulfur atoms:
SMILES	VACV Venus inh	Vaccinia mCherry
Cc1ccccc1N1CCN(S(=O)(=O)c2nnc(NC(=O)CC(C)C)s2)CC1	-16%	-4%
CC(C)C(=O)Nc1nnc(SCC(=O)NCC2CCCO2)s1 (stereo not given)	-4%	i
COCC(=O)Nc1ccc(S(=O)(=O)Nc2nccs2)cc1	-13%	-25%
CN(Cc1ccccc1)C(=O)COC(=O)C1CCN(S(=O)(=O)c2cccs2)CC1	-5%	i
O=C(NCc1n[nH]c(=S)n1-c1cccc(Cl)c1)c1ccc(S(=O)(=O)N2CCCCC2)cc1	-12%	-4%
CN(C)CCCN(C(=O)c1ccc(S(=O)(=O)N2CCc3ccccc32)cc1)c1nc2c(Cl)cccc2s1	?	-14%
CSc1ccc(CCNC(=O)c2ccc(CS(=O)Cc3ccc(Cl)cc3)o2)cc1 (stereo not given)	-6%	-7%
CC1(C(=O)NS(=O)(=O)c2ccc(C#N)cc2)CCN1C(=O)Cc1ccsc1 (stereo not given)	-13%	i
CCOc1ccc(S(=O)(=O)N2CCN(S(=O)(=O)c3ccc(C)c(C)c3)CC2)cc1	-4%	i
COc1cccc(CNC(=O)Cc2ccc(S(=O)(=O)N3CCOCC3)s2)c1	-11%	-13%
CCC1CCCCN1C(=S)NC(=O)c1ccc(F)c(S(=O)(=O)N2CCOCC2)c1 (stereo not given)	-11%	i
